HSV augment: HSV replication enhancement; HSV replication augmentation in cells, fold increase; maximum fold increase; 0.005% of 220,000 active; AID 1956;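 active = peak rise of 1.5-fold or more in the series; tested in PC3 cells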;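 also: first round at 10 µM; read as green reporter fluorescence; hits show the peak of a series up to 25 µM; 1 = signal of infected wells without compound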
GALR2 ag: GALR2 (human) receptor agonism; O43603; activation, %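 (tested at 5 µM)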; 0.48% of 140,000 active; GALR2-expressing cells, agonist activation read-out;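 active = above mean plus 3 SD of all compounds, about 5% in these data, not always enough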;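 also: 0% = vehicle buffer wells and 100% = reference agonist at full effect; tested in CHO reporter cells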
Target sequence (O43603 whole entry, looked up): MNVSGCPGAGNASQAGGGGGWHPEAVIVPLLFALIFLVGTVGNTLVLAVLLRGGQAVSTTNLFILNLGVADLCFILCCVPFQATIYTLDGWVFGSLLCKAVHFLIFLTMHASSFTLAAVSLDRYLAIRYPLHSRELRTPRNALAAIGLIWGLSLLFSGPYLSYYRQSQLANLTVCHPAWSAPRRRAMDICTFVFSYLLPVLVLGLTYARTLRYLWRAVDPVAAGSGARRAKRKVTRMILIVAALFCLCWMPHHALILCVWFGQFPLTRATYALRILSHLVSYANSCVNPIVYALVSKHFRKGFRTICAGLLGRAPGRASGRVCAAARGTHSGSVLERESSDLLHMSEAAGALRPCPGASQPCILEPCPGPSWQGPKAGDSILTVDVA
PKD1 inh: inhibitors of human PKD1 kinase. Q15139. PKD1 kinase fluorescence polarization assay. inhibition, %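 (about 10 µM by stock and volumes)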. 0.056% of 200,000 active. AID 797;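 active = inhibition of 50% or more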;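 also: controls were vehicle for no effect and a reference inhibitor for full effect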
INS promoter inh: TRM-6 insulin promoter activity inhibition | TRM-6 cells (human fetal islet line), insulin promoter-eGFP reporter, imaging; reporter expression induced with tamoxifen | AID 1273 | inhibition, % at 2 µM | 0.9% of 130,000 active;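 active = inhibition above the mean plus 3 SD, with well images judged a real hit on visual review, cut at about 60% in these data, passing the limit was not always enough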
RGS16-Gao: RGS16-Galphao interaction regulator (human); O15492+P09471; bead-based flow cytometry RGS16-Galphao binding, fluorescence; actives lie on both sides; binding response (% of control), % at 10 µM; 0.38% of 220,000 active;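 active = below 25% or above 175%, edge rows of some plates excepted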;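 also: Galphao activated by GDP with aluminum fluoride before binding; 100% = wells without compound and 0% = beads without RGS; some results beyond the cut were filed as inactive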
Target sequence (O15492 whole entry, looked up): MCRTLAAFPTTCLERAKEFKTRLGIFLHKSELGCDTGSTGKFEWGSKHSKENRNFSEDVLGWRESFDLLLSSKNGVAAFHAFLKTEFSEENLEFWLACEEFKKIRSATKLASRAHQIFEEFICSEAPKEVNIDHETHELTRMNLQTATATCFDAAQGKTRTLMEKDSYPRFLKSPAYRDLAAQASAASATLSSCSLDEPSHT
Target sequence (P09471 whole entry, looked up): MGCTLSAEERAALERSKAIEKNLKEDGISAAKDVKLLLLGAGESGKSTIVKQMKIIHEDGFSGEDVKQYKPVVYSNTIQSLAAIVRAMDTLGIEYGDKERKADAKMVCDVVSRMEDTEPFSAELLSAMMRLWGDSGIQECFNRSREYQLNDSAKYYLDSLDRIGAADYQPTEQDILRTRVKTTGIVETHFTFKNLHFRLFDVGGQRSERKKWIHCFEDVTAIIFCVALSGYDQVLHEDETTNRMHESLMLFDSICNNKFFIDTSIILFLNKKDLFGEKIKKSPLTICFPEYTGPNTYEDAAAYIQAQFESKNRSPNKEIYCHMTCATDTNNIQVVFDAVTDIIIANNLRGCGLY
INS promoter inh cell count: recorded beside INS promoter inh, whose call it bears; normalized cell count, %; measured here: cell count, toxicity; reference of the scale not given here;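 cells exposed to compound for 48 h; stained nuclei by imaging scaled within each plate; lower means fewer cells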
HSV augment primary fold: also measured in HSV augment; calls as there; fold increase; compound at 10 µM; measured here: primary screen fold increase 10 uM; tested in PC3 cells;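 GFP signal in the first replicate; 1 = infected wells without compound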
Active calls of the source: *; i = inactive; / = not tested or not shown.

item	Structure	HSV augment	HSV augment primary fold	GALR2 ag	PKD1 inh	INS promoter inh	INS promoter inh cell count	RGS16-Gao
1	Cc1cc2oc(C(=O)NCCc3ccc(S(N)(=O)=O)cc3)c(C)c2cc1C	i	0.81	/	0	/	/	103
2	COc1cc(/C=C/C(=O)Nc2nnc(CC(C)C)s2)cc(OC)c1OC	i	0.81	4.1	-18	33	75	110
3	Cc1cc(C)c(NC(=O)C2CCN(c3cnccn3)CC2)c(C)c1	i	0.93	-2.5	-4	-481	43	123
4	CCOC(=O)CSc1nc2ccccc2c(=O)n1CC1CCC(C(=O)NCc2ccco2)CC1 (configuration not stated)	i	0.79	-1.8	-3	38	127	98
5	CCOC(=O)c1sc(-c2ccc(Cl)cc2)nc1O	i	1.2	/	/	/	/	100
6	COc1ccc(C)cc1S(=O)(=O)NC1CCCCC1	i	0.89	-2.0	-4	-47	125	106
7	COCCNC(=O)c1cc2nc(-c3ccc(F)cc3)cc(C(F)(F)F)n2n1	i	0.86	/	6	-10	108	91
8	COc1ccc(S(=O)(=O)N2CCCC2)c(Cl)c1Cl	i	0.98	/	-4	-33	94	100
9	CC(=O)Nc1nc(C)c(Oc2ccc(Cl)cc2)c(=O)[nH]1	i	1.1	/	/	/	/	99
10	N#Cc1ccc(CSc2nnc(-c3cccs3)n2-c2ccccc2)cc1	i	0.95	0.4	0	-83	126	102
11	CCCCC[C@H](O)/C=C/[C@H]1C=CC(=O)[C@@H]1C/C=C\CCCC(=O)O	i	0.88	1.2	-3	-5	67	105
12	COc1ccc(CCN2C(=O)CSC2c2ccc(OC)c(OC)c2)cc1OC (configuration not stated)	i	0.94	/	2	/	/	108
13	CC(=O)c1ccc(N(C(=O)CS(=O)CC(=O)Nc2ccc(F)cc2)C(C(=O)NC2CCCCC2)c2cccs2)cc1 (configuration not stated)	i	0.9	-1.5	-11	-50	106	96
14	Nc1nc(SCC(=O)OCc2ccccc2)[nH]c(=O)c1NC(=O)c1ccco1	i	0.84	-3.1	-9	20	138	102
15	CCn1c(SCC(=O)Nc2ccc3c(c2)OCCO3)nnc1-c1c[nH]c2ccccc12	i	0.91	/	3	/	/	97
16	N#Cc1nc(-c2ccco2)oc1N1CCc2ccccc2C1	i	1.2	-0.9	-11	19	102	111
17	COc1cc(C=C2C(=O)OC(C)(C)OC2=O)cc(Cl)c1OCC(=O)Nc1ccccc1	i	1.1	/	-3	/	/	99
18	CN(C)c1ccc(/C=N/N2C(=S)SC(C)(C)C2N(O)C(=O)Nc2ccc([N+](=O)[O-])cc2)cc1 (configuration not stated)	i	0.87	-0.2	-1	-18	102	105
19	O=S1(=O)c2ccccc2C(CCO)N1Cc1ccccc1 (configuration not stated)	i	0.97	/	/	/	/	102
20	Nc1nnc(SCC(=O)Nc2cc(C(F)(F)F)ccc2N2CCOCC2)s1	i	0.78	-1.1	-2	7	115	97
21	Nn1c(SCc2ccccc2F)nnc1-c1cccnc1	i	1.1	/	/	/	/	94
22	O=[N+]([O-])c1ccccc1NCCNS(=O)(=O)c1ccc(Cl)cc1	i	0.93	-1.0	-19	-23	98	105
23	CCOC(=O)c1c(CSc2ccccc2)n(C)c2cc(Br)c(O)c(CN(C)C)c12	i	1	/	/	/	/	97
24	CCOc1cc(C2C(C(=O)c3ccccc3)=C(C(=O)OC)Nc3nnnn32)ccc1O (configuration not stated)	i	1.2	-0.7	-8	55	87	99
25	O=C(CSc1n[nH]c(-c2ccccc2O)n1)N1CCOCC1	i	1.2	/	1	/	/	102
26	O=C(/C=C/c1ccccc1)OCCCCN=C1NS(=O)(=O)c2ccccc21	i	0.98	/	-4	-20	169	102
27	CNS(=O)(=O)c1cccc(C(=O)OCC(=O)C23CC4CC(CC(C4)C2)C3)c1	i	0.86	-1.2	2	27	45	105
28	COc1cccc(CNC(=O)c2cc3oc4ccccc4c3n2C)c1OC	i	0.98	-0.6	-3	/	/	106
29	CCOC(=O)c1c(NC(=O)c2cccs2)sc2c1CC(C)(C)OC2	i	0.91	-0.7	-8	58	168	100
30	CC(C)Oc1ccc(Oc2ccc(C(F)(F)F)cn2)cc1	i	0.94	-1.3	-1	41	109	99

(list continues)
item	Structure	HSV augment	HSV augment primary fold	GALR2 ag	PKD1 inh	INS promoter inh	INS promoter inh cell count	RGS16-Gao
31	Cc1cccc2nc(Cn3c(=O)n(CCCC(=O)NCc4ccco4)c(=O)c4ccccc43)cc(=O)n12	i	0.94	-0.4	-6	-38	118	104
32	O=C(OCn1nnc2ccccc2c1=O)c1cn(-c2ccccc2)nc1-c1cccnc1	i	0.88	-1.8	-9	-6	36	102
33	CCn1c(SCC(=O)c2ccc3ccccc3c2)nnc1-c1ccco1	i	0.94	-0.7	-9	59	123	104
34	O=C(Cc1ccc(-n2c(=O)c3ccccc3n(Cc3ccccc3Cl)c2=O)cc1)NCC1CCCO1 (configuration not stated)	i	0.82	/	-1	27	104	106
35	CCOc1ccc(NC(=O)C2(c3ccc(OC)c(OC)c3)CCCC2)cc1	i	1.1	-0.4	-5	/	/	99
36	CC(=O)Nc1nc2c(C)c(Cl)ccc2s1	i	0.97	/	/	/	/	99
37	CC1CC(=O)C2=C(C1)Nc1ccccc1SC2c1ccc(F)cc1 (configuration not stated)	i	1.1	0.3	-7	-35	148	106
38	Cc1ccc2c(c1)N(CC(=O)NCc1cccs1)C(=O)C(C)O2 (configuration not stated)	i	1	-1.9	1	3	100	101
39	Cc1cccc(-c2cc(=O)c(C(=O)O)cn2-c2ccc(F)cc2F)c1	i	0.91	/	/	/	/	98
40	FC(F)(F)c1ccc(-n2cn[nH]c2=S)cc1	i	0.92	/	/	/	/	100
41	CCOC(=O)C1CCCN(C(=O)Cc2ccc(OC)c(OC)c2)C1 (configuration not stated)	i	0.83	-2.3	-3	50	113	94
42	O=C(c1ccc2c(Cl)c3c(nc2c1)CCCC3)N1CCC(N2CCCCC2)CC1	i	1.4	-0.9	-6	-30	58	100
43	O=C(O)CCSc1ccc([N+](=O)[O-])cc1[N+](=O)[O-]	i	0.93	/	-6	18	118	91
44	CC(NC(=O)/C(=C/c1ccc(OC(F)F)cc1)c1ccccc1)c1ccccc1 (configuration not stated)	i	1.1	-2.2	-2	/	/	109
45	N#Cc1cc2c([nH]c1=S)CCCC2	i	1.2	-1.5	2	-19	64	93
46	C/C(=N\Nc1cccc(C(=O)O)c1)c1ccc2c(c1)Nc1ccccc1S2	i	1.2	/	/	/	/	100
47	Cc1cc(C)c(C#N)c(Nc2ccccc2Cl)n1	i	1	-2.4	-9	14	148	101
48	Cc1c(NC(=O)CSc2nnnn2C)c(=O)n(-c2ccccc2)n1C	i	1.1	-0.8	-2	-20	78	84
49	CC(C)N1C(=O)S/C(=C/c2ccc3c(c2)n(C)c(=O)n3C)C1=O	i	1.1	97*	7	31	142	63
50	N#C/C(=C\c1ccccc1O)C(=O)Nc1cccnc1	i	1.1	/	/	/	/	79
51	Cc1cc(-c2nnc3n2N=C(c2ccccc2Br)CS3)n[nH]1	i	1	/	/	/	/	99
52	CCN(CC(=O)Nc1ccccc1-c1ccccc1)Cc1nc2ccccc2c(=O)[nH]1	i	0.7	/	-11	-105	140	93
53	COc1ccc(N2CCN(Cc3cc(=O)oc4cc5c(cc34)CCCC5)CC2)cc1	i	0.91	0.7	-16	27	119	106
54	C=CCNc1nc(NCc2ccco2)nc(OCC)n1	i	1.1	-0.8	-1	/	/	95
55	CC1CCc2sc(C(=O)NN=C3CCC(c4ccccc4)CC3)cc2C1 (configuration not stated)	i	0.93	-0.9	-5	3	110	102
56	O=C(Cc1ccc([N+](=O)[O-])cc1)Nc1ccc2c(c1)C(=O)NC2=O	i	0.94	/	-2	19	102	99
57	O=C(O)c1n[nH]c2c1CCCCC2	i	0.8	0.4	-1	/	/	97
58	Nc1nc2n(n1)C(c1cccc(Br)c1)CC(c1ccccc1)N2 (configuration not stated)	i	1	-0.5	12	/	/	104
59	O=C(OCC1CC(c2ccccc2)=NO1)c1ccc(Cl)cc1 (configuration not stated)	i	0.94	-1.4	8	/	/	102
60	CCOC(=O)N1CCC(N2C(=O)c3ccc(C(=O)O)cc3C2=O)CC1	i	0.88	-0.8	1	/	/	103

Filtered by structure, the compounds so far containing a COOH group.
item	Structure	HSV augment	HSV augment primary fold	GALR2 ag	PKD1 inh	INS promoter inh	INS promoter inh cell count	RGS16-Gao
11	CCCCC[C@H](O)/C=C/[C@H]1C=CC(=O)[C@@H]1C/C=C\CCCC(=O)O	i	0.88	1.2	-3	-5	67	105
39	Cc1cccc(-c2cc(=O)c(C(=O)O)cn2-c2ccc(F)cc2F)c1	i	0.91	/	/	/	/	98
43	O=C(O)CCSc1ccc([N+](=O)[O-])cc1[N+](=O)[O-]	i	0.93	/	-6	18	118	91
46	C/C(=N\Nc1cccc(C(=O)O)c1)c1ccc2c(c1)Nc1ccccc1S2	i	1.2	/	/	/	/	100
57	O=C(O)c1n[nH]c2c1CCCCC2	i	0.8	0.4	-1	/	/	97
60	CCOC(=O)N1CCC(N2C(=O)c3ccc(C(=O)O)cc3C2=O)CC1	i	0.88	-0.8	1	/	/	103

Going on with the list.
item	Structure	HSV augment	HSV augment primary fold	GALR2 ag	PKD1 inh	INS promoter inh	INS promoter inh cell count	RGS16-Gao
61	Cn1c(=O)c2c(nc(N3CCN(c4ccc([N+](=O)[O-])cc4)CC3)n2C)n(C)c1=O	i	0.98	/	/	/	/	104
62	O=[N+]([O-])c1ccc(N2CCN(S(=O)(=O)c3ccccc3)CC2)cc1N1CCc2ccccc2C1	i	0.92	0.3	0	/	/	100
63	CCOc1ccc(N/C(C)=C/C(=O)c2ccc(C)o2)cc1	i	0.72	-0.2	-1	-379	109	98
64	CCC(=O)Nc1cccc(NC(=S)NC(=O)c2ccccc2)c1	i	1	-0.8	-6	-25	114	101
65	CSc1nc2sc3c(c2c2nnnn12)CC(C)(C)OC3	/	/	-2.1	-10	-347	150	/
66	COc1ccc(-c2csc(NC(=O)c3ccc(OCC(=O)N4CCOCC4)c(OC)c3)n2)cc1	i	0.85	0.2	-3	-21	135	108
67	C=CCNc1oc(-c2cccs2)nc1S(=O)(=O)c1ccccc1	i	0.88	/	0	/	/	102
68	CCCCCCC(=O)N1C/C=C\C(c2ccc(OC)cc2)N(Cc2ccc(F)cc2)C(=O)C1 (configuration not stated)	i	0.98	/	/	/	/	93
69	CN(C)c1ccc(C(CNC(=O)c2ccccc2F)c2c[nH]c3ccccc23)cc1 (configuration not stated)	i	0.95	-1.0	0	/	/	136
70	COc1ccc(C2C(C#N)=C(N)Oc3c2c(-c2ccccc2)nn3-c2ccccc2)c(OC)c1OC (configuration not stated)	i	1	-0.3	3	21	138	105
71	Cc1ccc(Cl)c(NC(=S)N(CCCN2CCOCC2)Cc2ccco2)c1	i	0.98	-2.1	1	/	/	102
72	CCOc1cc(/C=N/NC(=O)CCc2n[nH]c(=O)[nH]c2=O)ccc1O	i	0.9	/	-3	27	117	109
73	CCc1nc(N=C(N)N)nc2ccccc12	i	0.86	/	3	33	134	107
74	COc1ccc(OCC(O)CNC(=O)Nc2ccc(Cl)cc2)cc1 (configuration not stated)	i	1.1	0.0	6	/	/	105
75	O=C(c1cc([N+](=O)[O-])ccc1N1CCN(S(=O)(=O)c2ccc(Cl)c(Cl)c2)CC1)N1CCOCC1	i	1	-0.9	-1	-20	105	86
76	CC1CCN(Cc2c(C#N)c3ccccc3n2C)CC1	i	0.84	0.6	-20	-10	50	117
77	COc1ccccc1N1CCN(S(=O)(=O)c2c(C)ccc3nsnc23)CC1	i	0.84	-2.1	0	-107	95	99
78	Cc1cccc(OC(C)c2ccnc3nc(/N=C/N(C)C)nn23)c1 (configuration not stated)	i	1.3	-2.2	4	43	133	103
79	Cn1c(CN2CCN(C(=O)c3ccccc3Cl)CC2)nc2cc([N+](=O)[O-])ccc21	i	1	-1.6	3	42	47	60
80	O=C(CSc1nc2c(c(=O)n1-c1ccc(Cl)cc1)SCC2)N1CCCC1	i	0.93	-0.8	-8	-17	139	94
81	COc1ccc(CCNC(=O)c2cc(-c3ccccc3OC)on2)cc1OC	i	1	-3.0	17	/	/	101
82	CN(c1ccccc1C(=O)NC1CC2CCC1C2)S(=O)(=O)c1ccccc1 (configuration not stated)	i	0.92	-0.5	-8	-52	115	118
83	COCCNC(=O)C(c1ccc(F)cc1)N(CCOC)C(=O)CCC(=O)Nc1nccs1 (configuration not stated)	i	0.87	-2.8	-3	/	/	102
84	COc1cccc(OC)c1C(=O)Nc1cccc(-c2nc3ccccc3[nH]2)c1	i	0.96	/	-2	36	75	95
85	CCOc1ccc(NC(=O)NC2CCOC(C)(C)C2)cc1 (configuration not stated)	i	0.95	-0.9	-5	/	/	104

Screening data as filed in PubChem.
